# GIV Gai3 FP: inhibitors of GIV peptide binding to Galpha-i3, primary screen, biochemical, fluorescence polarization, FITC-GIV GBA peptide, rat Galphai3. Guanine nucleotide-binding protein G(i) subunit alpha-3 (Rattus norvegicus), P08753. 90 min; hits give low values; scaled: aluminum fluoride 0%, vehicle 100%. percent of control (FP), % (concentration not given with the values). actives 0.42% (n = 210,000);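 active = replicate mean at 85% of control or lower, very high polarization wells dropped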;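 note: wells of about 15 µL received 100 nL stock; the first replicate is given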
# Target sequence (P08753 whole entry, looked up): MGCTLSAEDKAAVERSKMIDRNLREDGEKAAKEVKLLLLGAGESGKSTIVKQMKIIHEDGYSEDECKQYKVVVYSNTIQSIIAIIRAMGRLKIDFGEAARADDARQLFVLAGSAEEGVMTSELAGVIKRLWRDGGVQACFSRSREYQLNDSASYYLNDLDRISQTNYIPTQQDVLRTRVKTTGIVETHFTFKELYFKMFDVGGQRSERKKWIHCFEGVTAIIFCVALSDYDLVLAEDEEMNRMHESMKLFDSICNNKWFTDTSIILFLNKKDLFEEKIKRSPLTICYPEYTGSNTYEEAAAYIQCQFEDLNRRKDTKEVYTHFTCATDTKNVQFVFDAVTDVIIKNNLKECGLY
# Starred values were filed as active, the others as inactive. Only part of the results is shown, so the mix of outcomes need not match the whole.
SMILES,GIV Gai3 FP
Cc1cccc(-c2nc(Nc3ccc(F)cc3F)c3ccccc3n2)c1,108
CCOc1ccc(-n2nc(C(=O)N3CCC(C(N)=O)(N4CCCCC4)CC3)c3ccccc3c2=O)cc1,95
Cc1cccn2c(=O)c(C(=O)N3CCCC3)cnc12,107
O=c1[nH]c2ccc(S(=O)(=O)N3CCCc4ccccc43)cc2[nH]1,103
Cc1ccc(C)c(Nc2nc(NCc3ccco3)c3ccccc3n2)c1,104
COc1ccc2cc(C(=O)Nc3cccc(C)c3)c(=Nc3ccc(C(=O)O)cc3)oc2c1,108
O=C(N/N=C/c1cccc(Br)c1)C1C(c2ccccc2)C(C(=O)N2CCOCC2)C1c1ccccc1 (centres undefined),103
COC(=O)c1ccc2c(=O)n(CCCCCC(=O)NC3CCN(Cc4ccccc4)CC3)c(=O)[nH]c2c1,107
CC(=O)Nc1nc(CC(C)C)cc(-c2cccc(Br)c2)c1C#N,115
Cc1ccc(C)c(NC(=O)c2c(-c3ccc(Br)cc3)noc2C)c1,106
Cc1cc(N2CCOCC2)nc(N2CCN(C(=O)C(C)Oc3ccccc3)CC2)n1 (centres undefined),104
O=C(NCCc1ccccc1)c1ccc(-c2noc(C3CCN(C(=O)c4ccccc4)CC3)n2)cc1,100
CCOC(=O)c1c(NC(=O)c2ccccc2F)sc2c1CCN(C(=O)OCC)C2,112
CC(C)(C)C(=O)[C@H]1[C@H](c2ccc(Br)cc2)C(C#N)(C#N)[C@@H]2c3ccccc3C=CN21,114
O=C(C1CCN(c2cncnc2N2CCOCC2)CC1)N1CCC(N2CCCCC2)CC1,101
O=C(Nc1ccccc1)c1ccc(C2Nc3ccccc3S(=O)(=O)N2)cc1 (centres undefined),98
O=C1c2ccccc2NC2(C(=O)N(Cc3c(Cl)cccc3Cl)c3ccccc32)N1c1cccc(C(F)(F)F)c1 (centres undefined),111
Cc1cc(N2C(=O)c3ccccc3C2C(=O)NCCC(C)C)ccc1Br (centres undefined),105
CN(CCNC(=O)c1cc2c(-c3ccc(Cl)cc3)nn(C)c2s1)Cc1ccccc1,107
CC(C)CCNC(=O)C1(c2ccc(NS(C)(=O)=O)cc2)CCC1,98
Cc1ccc2c(nc3s/c(=C/c4cn(Cc5ccccc5)c5ccccc45)c(=O)n32)c1C,106
Cc1ccc(N=C(NOCc2ccccc2[N+](=O)[O-])c2nonc2N)cc1,103
CCOC(=O)C1=C(CSc2nc(-c3cccs3)ccc2C#N)OC(N)=C(C#N)C1c1ccccc1OC (centres undefined),109
CCCOc1ccc(NC(=O)C2OC3OC(C)(C)OC3C3OC(C)(C)OC23)cc1 (centres undefined),107
CC(C)N1CCc2c(sc(NC(=O)C3CC3)c2-c2nc3ccccc3s2)C1,-3.2*
CC(C)c1cc(C2CCCN2Cc2ccc(Br)cc2)no1 (centres undefined),102
CCOC(=O)N1CCN(Cc2nc(-c3ccc(N4CCCC(C)C4)nc3)no2)CC1 (centres undefined),105
Cc1ccc(-c2noc(CCn3nc(-c4ccc5c(c4)OCO5)ccc3=O)n2)cc1,104
COc1ccc(NC(=O)c2sc3nc(C)nc(N4CCN(C)CC4)c3c2C)cc1Cl,111
CCOc1ccc(-c2ccc(OCCNC(=O)c3ccc(C)cc3)nn2)cc1,99
CCOc1ccc(NC(=O)C2CC(=O)N(CC)C(=Nc3ccc(Cl)cc3)S2)cc1 (centres undefined),106
COc1ccccc1Oc1ccnc(-c2cccc(C(=O)Nc3ccc(Cl)cc3)c2)n1,108
Cc1cccc(-c2noc(-c3nn(-c4ccc(Cl)cc4)ccc3=O)n2)c1,102
O=C(CN1CCN(C(=O)Nc2ccc(Cl)cc2)CC1=O)N1CCN(c2ccccn2)CC1,108
Cc1nnc(OCc2cccc([N+](=O)[O-])c2)c2ccccc12,102
O=S(=O)(c1ccc(-c2nnc(C3CC3)o2)o1)N1CCCCCC1,105
C=CCSc1nnc2c3ccccc3nc(-c3ccccc3)n12,96
CCCc1[nH]n(-c2ccc(F)cc2)c(=O)c1C=Nc1ccc(Cl)cc1C,100
Cc1ccccc1N=Cc1c(C(F)(F)F)[nH]n(-c2nc3ccccc3s2)c1=O,104
CCOc1ccc(C2Oc3c(OCC)cccc3C3CC(c4cccc(OC)c4)=NN32)cc1 (centres undefined),98
CCOC(=O)COc1ccc(C=Nc2c(C)n(C)n(-c3ccccc3)c2=O)cc1OC,120
CCCNC(=O)c1ccc(-c2cc(N3CCCC3)ncn2)cc1,127
O=C(c1ccc([N+](=O)[O-])cc1)N1CCc2c([nH]c3ccccc23)C1c1ccc(Cl)cc1 (centres undefined),118
COc1ccc(/C=N/n2c(C)nnc2-n2nc(C)cc2C)cc1O,111
O=C(Nc1ccc(Cl)c(Cl)c1)c1cc(S(=O)(=O)N2CC3CC(C2)c2cccc(=O)n2C3)ccc1F (centres undefined),107
Cn1c(=O)n(CCN2CCOCC2)c(=O)c2cnc(-c3ccncc3)nc21,105
CC(C)(C)c1ccc2c(c1)C1c3ccc(C(C)(C)C)cc3C2C2C(=O)N(c3cccc(Cl)c3)C(=O)C12 (centres undefined),106
CCS(=O)(=O)Nc1ccc(C2(C(=O)NCCC(C)C)CCC2)cc1,100
CN(C)c1nc(OCCOC(=O)COc2ccc(Cl)cc2Cl)nc(N(C)C)n1,100
Cc1ccc(NC(=O)COc2cccc3c(=O)n(C)ccc23)cc1,102
Cc1[nH]nc2c1C(C(=O)c1ccc3c(c1)OCCO3)CC(=O)N2 (centres undefined),100
CCOC(=O)c1sc2ncnc(NCc3ccc(F)cc3)c2c1C,118
O=C1C2C3c4ccccc4C(C=Nc4ccccc4)(c4ccccc43)C2C(=O)N1c1ccccc1 (centres undefined),106
CCCS(=O)(=O)c1nc2ccc(NS(=O)(=O)c3cc(C)c(C)cc3C)cc2s1,98
COC(=O)CN1C(=O)C2(C(C#N)=C(N)Oc3n[nH]c(-c4ccc(OC)cc4)c32)c2ccccc21 (centres undefined),102
CCc1ccc(OCCCC(=O)Nc2ccc3c(c2)OCCO3)cc1,104
CCc1nc(CN2C(=O)COc3ccc(S(=O)(=O)N4CCN(C5CCCCC5)CC4)cc32)no1,105
Clc1ccc(-c2[nH]c(-c3ccc(C#Cc4ccccc4)cc3)nc2-c2ccccc2)cc1,101
Cc1[nH]nc(-c2c(C)sc(C)c2S(=O)(=O)NCc2ccc(Br)cc2)c1C,98
COc1ccc(NC(=O)c2sc3nc(-c4cccs4)ccc3c2N)cc1,110

# Marked active in GIV Gai3 FP (from the list above):
SMILES,GIV Gai3 FP
CC(C)N1CCc2c(sc(NC(=O)C3CC3)c2-c2nc3ccccc3s2)C1,-3.2*

# Later entries
SMILES,GIV Gai3 FP
Cc1cccc(-n2sc3c(c2=S)-c2ccccc2NC3(C)C)c1C,113
CCOC(=O)C1=C(N)n2c(s/c(=C/c3ccccc3F)c2=O)=C(C(=O)OCC)C1c1ccccc1F (centres undefined),122
CC(C)c1cc(C2CCCN2C(=O)Nc2ccc(F)cc2F)on1 (centres undefined),102
O=C(Nc1ccc(Br)cc1)c1ccc(F)c(S(=O)(=O)N2CCN(c3ccccc3F)CC2)c1,103
Cc1nn2c(CNS(=O)(=O)c3c(C)noc3C)c(C)nc2s1,106
COc1ccc(Cl)cc1S(=O)(=O)Nc1ccc(-c2nnc(-c3ccccc3)o2)cc1,100
Cc1c(Cl)cccc1NC(=O)CSc1nc2[nH]ncc2c(=O)n1-c1ccc(Br)cc1,104
COC(=O)C1=CN(CCC23CC4CC(CC(C4)C2)C3)C=C(C(=O)OC)C1c1cccc([N+](=O)[O-])c1,104
Cc1ccc(CN2CCN(C3CCN(C(=O)NC4CCCCC4)CC3)C(=O)C2=O)cc1,98
Oc1ccccc1-c1nc2c3c(-c4ccccc4)c(-c4ccccc4)oc3ncn2n1,106
COc1ccc(CCN2C(=S)SC(C)(C)C2N(O)C(=O)NC(C)C)cc1OC (centres undefined),103
O=C1CSC(c2cc3c(cc2Br)OCO3)N1c1cc(Cl)ccc1O (centres undefined),117
CCCCNS(=O)(=O)c1ccc2c(c1)Cc1cc(S(=O)(=O)NCCCC)ccc1-2,103
O=C(c1ccoc1)N1CCN(S(=O)(=O)c2cc(-c3noc(C4CCC4)n3)cs2)CC1,102
Ic1ccc(-c2nc(-c3ccccc3)c(-c3ccc(-c4ccc(-c5[nH]c(-c6ccc(I)cc6)nc5-c5ccccc5)cc4)cc3)[nH]2)cc1,110
Cc1ccc2occ(C3Nc4ccccc4NC4=C3C(=O)CC(c3ccccc3Cl)C4)c(=O)c2c1 (centres undefined),108
Cc1ccc(-n2nc(C)c3c(=O)n(CC(=O)NCc4ccccc4Br)ccc32)cc1,103
O=C(NC1CCN(Cc2ccccc2)CC1)C1CCCN(C(=O)c2cccc(Cl)c2)C1 (centres undefined),108
CCc1cc(-c2csc(S(=O)(=O)NCCc3ccc(Cl)cc3)c2)on1,106
O=C1CCCC(O)=C1C(c1ccc(Cl)cc1)C1C(=O)CCCC1=O (centres undefined),111

# Of the compounds above, these contain an aryl methoxy group.
SMILES,GIV Gai3 FP
COc1ccc2cc(C(=O)Nc3cccc(C)c3)c(=Nc3ccc(C(=O)O)cc3)oc2c1,108
CCOC(=O)C1=C(CSc2nc(-c3cccs3)ccc2C#N)OC(N)=C(C#N)C1c1ccccc1OC (centres undefined),109
COc1ccc(NC(=O)c2sc3nc(C)nc(N4CCN(C)CC4)c3c2C)cc1Cl,111
COc1ccccc1Oc1ccnc(-c2cccc(C(=O)Nc3ccc(Cl)cc3)c2)n1,108
CCOc1ccc(C2Oc3c(OCC)cccc3C3CC(c4cccc(OC)c4)=NN32)cc1 (centres undefined),98
CCOC(=O)COc1ccc(C=Nc2c(C)n(C)n(-c3ccccc3)c2=O)cc1OC,120
COc1ccc(/C=N/n2c(C)nnc2-n2nc(C)cc2C)cc1O,111
COC(=O)CN1C(=O)C2(C(C#N)=C(N)Oc3n[nH]c(-c4ccc(OC)cc4)c32)c2ccccc21 (centres undefined),102
COc1ccc(NC(=O)c2sc3nc(-c4cccs4)ccc3c2N)cc1,110
COc1ccc(Cl)cc1S(=O)(=O)Nc1ccc(-c2nnc(-c3ccccc3)o2)cc1,100
COc1ccc(CCN2C(=S)SC(C)(C)C2N(O)C(=O)NC(C)C)cc1OC (centres undefined),103

# Next part:
SMILES,GIV Gai3 FP
COc1ccc(C(=O)N2CCCC(c3nc(-c4ccc(NC(C)=O)cc4)no3)C2)c(C)c1 (centres undefined),102
O=C(Nc1ccc(F)cc1F)N1CCC(n2cnc3ccccc3c2=O)CC1,108
COc1cccc(CN=C2Nc3ccccc3NC23CCCCC3)c1,97
O=c1/c(=C/c2cc(Cl)ccc2OCc2c(F)cccc2Cl)sc2nc3ccccc3n12,109
COc1ccccc1N1C(=O)/C(=C/c2ccc(-c3cc(Cl)ccc3Cl)o2)C=C1c1ccccc1,112
COc1ccc(S(=O)(=O)Cc2nc(-c3ccc(Br)cc3)no2)cc1,102
Cc1ccc(-c2nc(CSCC(=O)Nc3ccccc3)no2)cc1,103
CN1C(=O)C2(NN=C(c3cccc4ccccc34)S2)c2ccccc21 (centres undefined),112
Cc1ccc(NS(=O)(=O)c2cc(-c3nc(C(C)(C)C)cs3)cs2)c(Cl)c1,103
CCN(CC)S(=O)(=O)c1ccc2nc(SCC(=O)N3CCc4ccccc43)cc(C)c2c1,103
CCN(CC)C(=O)CSc1nc(-c2cccs2)cc(C(F)(F)F)c1C#N,100
O=C(NCc1c(-c2ccc(Cl)cc2)nc2n1CCS2)c1ccc(F)cc1,99
CCc1nc2sc(C(C)C)nn2c1S(=O)(=O)NC1CCCCC1,98
C=CCn1c2ccccc2c2nnc(SCC(=O)Nc3nnc(CC(=O)OCC)s3)nc21,116
CCOC(=O)c1c(C)n(-c2ccccc2)c2cc(Br)c(OC(C)=O)cc12,99
CN1C(=O)N(C)C2(c3ccccc3)Nn3c(s/c(=C/c4cccc([N+](=O)[O-])c4)c3=O)=NC12c1ccccc1 (centres undefined),107
COc1ccc2oc(=O)c(-c3nnc(NC4CCCCC4)s3)cc2c1,111
CCOC(=O)C1=CN(c2ccc(C)c(C)c2)C=C(C(=O)OCC)C1c1cc(OC)c(OC)c(OC)c1,114
CC(=O)N(C)C1(c2nnnn2-c2cccc(C)c2)CCCCC1,108
Clc1ccc(-c2nnc(-c3cccnc3N3CCC4(CC3)OCCO4)o2)cc1,105
COc1ccc(CONC(=Nc2ccc(C)cc2)c2nonc2N)cc1[N+](=O)[O-],105
CCOC(=O)c1c(NC(=O)CSc2nnc(CNC(=O)c3cccs3)n2Cc2ccccc2)sc2c1CCCC2,100
CCCNC(=O)C1CCCN(S(=O)(=O)c2cc(-c3noc(CC)n3)cs2)C1 (centres undefined),101
COc1ccc(/C=C(\NC(=O)c2ccccc2)C(=O)NCCCn2ccnc2)cc1,105
Cc1cccc(-n2nc3c(c2NC(=O)COc2ccc(Cl)cc2Cl)CS(=O)(=O)C3)c1C,106
COc1cc(OC)cc(C(=O)NCc2nnc(SCC(=O)N3CCc4ccccc43)n2-c2cc(OC)ccc2OC)c1,97
CC(=O)C1=C(C)NC(SCC(=O)c2ccc(Cl)cc2Cl)=C(C#N)C1c1sccc1C (centres undefined),115
CCN(CC)c1ccc(C=Nc2c(C)n(C)n(-c3ccccc3)c2=O)cc1,108
CCOC(=O)C1=C(C)NC2=C(C(=O)C(C(=O)OCC)C(c3cccc(OC)c3)C2)C1c1ccc(OC)c(OC)c1 (centres undefined),98
CCCC1(CC)NC(=S)N(c2ccc(C)cc2)N1 (centres undefined),112
CN1C(=O)N(C)C2(c3ccccc3)Nn3c(s/c(=C/c4ccccc4F)c3=O)=NC12c1ccccc1 (centres undefined),105
O=c1oc2ccc(Cl)cc2cc1-c1nc(-c2ccccc2)c2cc(Cl)ccc2n1,100
COc1ccccc1N1CCN(C(=O)Cn2c(=O)n3nc(-c4ccc(F)cc4)nc3c3ccccc32)CC1,100
CCCCS(=O)(=O)N1CCC(c2cnn(-c3ccccc3)c2)CC1,97
c1ccc(-c2noc(-c3ccc(N4CCCC4)nc3)n2)cc1,98
Cc1ccccc1-n1cnc2cc(Nc3nnc(C)c4ccccc34)ccc21,110

# Source: PubChem BioAssay (ICCB-Longwood Screening Facility, Harvard Medical School)
